# Bioassay records deposited in PubChem BioAssay by Fisher Drug Discovery Resource Center.
# NPYLR7 ag = activates Aedes aegypti NPYLR7 receptor. HEK293T NPYLR7/Galpha15, GCaMP6s calcium fluorescence. activation, % at 10 µM. hit rate 0.15% among 270,000. AID 1259423; in the data active = activation above about 40%;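 note: 0% = vehicle and 100% = reference agonist at the receptor; some compounds past the cut are filed as inactive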
# NPYLR7 ag max-min = further read-out of NPYLR7 ag, marked with its call; activation, %; measured here: Max-Min RFU normalised activation; some inactives read as strong as hits;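 span of the calcium signal over five minutes; 0% = vehicle and 100% = native peptide agonist; compound fluorescence can raise it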
# Numbers without * were called inactive; & = joins results of further samples.
canonical_smiles	NPYLR7 ag	NPYLR7 ag max-min
COc1cc2ccccc2cc1C(=O)Nc1ccc(Cl)c(-c2nc3ccccc3o2)c1	-2	-14
COc1ccc(NC(=O)CCC2CCN(C(=O)C3=CCCC3)CC2)c(OC)c1	2	0
COC(=O)c1ccc(OCC(O)CN2CC(C)c3ccccc32)cc1 (centres undefined)	-1	-8
O=C(NC1CCCCCC1)c1ccco1	6	10
Cc1ccc(CN2CCN(N=Cc3ccc(Cl)cc3)CC2)c(C)c1	-2	-5
CCC(C)N=C1SCC(c2cc(C)n(-c3ccc(OC)cc3)c2C)=NN1C (centres undefined)	-1	5
Cc1csc(NC(=O)c2sc3nc4c(cc3c2N)N2CCC4CC2)n1	9	3
Cn1nc(NC(=O)c2ccccc2Cl)c2c1NC(=O)CC2c1cccs1 (centres undefined)	-14	-21
Cn1ccc(C(=O)Nc2nc(-c3ccc4c(c3)CCO4)cs2)cc1=O	-27	-25
O=C(O)c1c(S(=O)(=O)NCCC2=CCCCC2)sc2c1CCNC2	-2	-7
Cn1cc(C(=O)N=Nc2c(O)[nH]c3ccc(Br)cc23)ccc1=O	-3	-11
Brc1cc2c(cc1CNCc1ccco1)OCO2	7	5
Cc1cc(C(=O)Nc2ccc(C(=O)N3CCOCC3)c(Cl)c2)c(C)o1	1	2
C=CCN(Cc1nccn1Cc1ccc(Cl)cc1Cl)C(=O)C1CCC1	15	25
CCOC(=O)CN1N=C(C)Cn2c1nc1c2c(=O)n(C)c(=O)n1C	19	10
CCOC(=O)C1=C(C)N=c2s/c(=C\c3cccc(OC)c3OC)c(=O)n2C1c1ccccc1OC (centres undefined)	13	8
CCC1COCCN1C(=O)c1cccc(NC(C)C)c1 (centres undefined)	12	5
COc1ccc(Br)c(C(=O)Nc2cc(C(C)(C)C)nn2-c2ccc(C#N)cc2)c1	31	34
CC(=O)Nc1nc(C(=O)OC2CC3CCC2(C)C3(C)C)cs1 (centres undefined)	-5	110
O=C1NC(=S)S/C1=C/C=C/c1ccccc1	-6	-8

# Reprinted from the part before: six entries; new compounds follow.
canonical_smiles	NPYLR7 ag	NPYLR7 ag max-min
CCOC(=O)CN1N=C(C)Cn2c1nc1c2c(=O)n(C)c(=O)n1C	19	10
CCOC(=O)C1=C(C)N=c2s/c(=C\c3cccc(OC)c3OC)c(=O)n2C1c1ccccc1OC (centres undefined)	13	8
CCC1COCCN1C(=O)c1cccc(NC(C)C)c1 (centres undefined)	12	5
COc1ccc(Br)c(C(=O)Nc2cc(C(C)(C)C)nn2-c2ccc(C#N)cc2)c1	31	34
CC(=O)Nc1nc(C(=O)OC2CC3CCC2(C)C3(C)C)cs1 (centres undefined)	-5	110
O=C1NC(=S)S/C1=C/C=C/c1ccccc1	-6	-8
CCc1c(C(=O)NC(C)C)cnn1C(C)(C)C	-3	-2
Cc1ccsc1CNc1ccccc1C(=O)N1CCCC(CCN)C1 (centres undefined)	0	6
CCOC(=O)C1(C)CCCN1C(=O)c1sccc1C (centres undefined)	-1	-5
CC(C)NC(=O)c1cnn2c(C(F)(F)F)cc(-c3ccco3)nc12	-3	-4
CCSc1nnc2c(n1)OC(c1ccc(N(C)C)cc1)Nc1ccccc1-2 (centres undefined)	-5	-6
CC1CCCC(C)N1C(=O)CN(Cc1ccccc1)CC(F)F (centres undefined)	2	-1
Cc1ccc(-n2nc(C(=O)Nc3ccccc3)c(=O)n(Cc3ccccc3)c2=O)cc1	-3	1
CN(CCOc1ccc(Cl)cc1)C(=O)Cc1ccc2c(c1)OCCO2	2	-2
O=C(Nc1ccccc1CO)c1cccc(CN2CCC2c2ccccc2)c1 (centres undefined)	5	-5
CC(=O)c1cc2ncc(C(=O)Nc3cc(C)cc(C)c3)cc2[nH]1	0	0
CC(C)(C)n1nc2c(c1NC(=O)C1CCCC1)CS(=O)(=O)C2	1	0
Cc1ccc(C2=NOC(C(=O)NC(Cc3ccccc3)C(=O)O)C2)cc1 (centres undefined)	0	-4
Cc1cc(C)c2c(c1)C(=NNc1ccc(C(F)(F)F)cn1)CCC2	2	-1
CC(C)(C)c1nc2cc(NC(=O)CNC(=O)c3ccco3)ccc2o1	-3	-5
O=C(CN1C(=O)C2C3C=CC(C3)C2C1=O)N1CCN(c2ncccn2)CC1 (centres undefined)	8	7
COCCCN(CC(=O)N1CCc2sccc2C1COc1ccccc1C)C(=O)CC(C)C (centres undefined)	-2	4
Cn1ccnc1SCc1cc(=O)c(OC(=O)/C=C/c2ccc3c(c2)OCO3)co1	-6	-6
COC(=O)[C@@H]1C[C@@H](NC(=O)c2c(-n3cccc3)sc(C)c2C)CN1C	9	0
Cc1cccc(C(=O)N2CCN(C(C(=O)Nc3ccc4c(c3)OCO4)C3CCCC3)CC2)c1 (centres undefined)	-4	13
CN(C)S(=O)(=O)NCCn1nc(-c2ccco2)ccc1=O	-3	-4

# 3 compounds already listed, ordered by molar mass, smallest number first.
canonical_smiles	NPYLR7 ag	NPYLR7 ag max-min
CCOC(=O)C1(C)CCCN1C(=O)c1sccc1C (centres undefined)	-1	-5
Cc1cc(C)c2c(c1)C(=NNc1ccc(C(F)(F)F)cn1)CCC2	2	-1
Cc1ccsc1CNc1ccccc1C(=O)N1CCCC(CCN)C1 (centres undefined)	0	6

# (listing goes on)
canonical_smiles	NPYLR7 ag	NPYLR7 ag max-min
CCOC(=O)Cn1c(O)c(N=NC(=O)CNC(=O)c2ccccc2OC)c2ccccc21	-7	-1
Cc1oc(-n2c(C)cc(C=C(C#N)c3ccc4c(c3)OCO4)c2C)c(C#N)c1C	9	4
CNC(=O)[C@@H]1C[C@@H](N)CN1C(=O)c1nc2cccc(C)n2c1F	5	2
O=C(Cn1cnc2sccc2c1=O)Nc1cc(Cl)cc(Cl)c1	7	2
Nc1cc(C(=O)Nc2ccc3ccccc3c2O)ccc1Cl	-1	-4
Cc1ccc(S(=O)(=O)N(C)C2(C)CCS(=O)(=O)C2)cc1C (centres undefined)	-3	-3
CCOC(=O)CCc1c(C)nc2ncnn2c1N1CCN(S(=O)(=O)CCl)CC1	-4	-6
Cc1ccsc1CN(CCN(C)C)Cc1c(C)nn(C)c1Cl	13	7
Cc1ccc(-c2cc(C(=O)N3CCC(C)CC3)n(-c3cccc(Cl)c3)n2)cc1C	-3	1
O=c1[nH]cccc1-c1csc2ccccc12	2	2
COCC(=O)Nc1ccc(-n2nc(OCC(C)C)nc2-c2ccc(Cl)c(Cl)c2)cc1	4	14
CCn1nc(C)c(CN2CCCC(Nc3ccc(C(C)C)cc3)C2)c1C (centres undefined)	3	-1
CN(Cc1cnn(C)c1)C(=O)CCCn1nnnc1CN1CCc2ccccc2C1	0	-1
Cc1ccc(C2=NN(C(=O)CN3CCOCC3)C(c3ccco3)C2)cc1 (centres undefined)	15	27
C/C=C(/C)C(=O)Oc1c(OC)c(OC)cc2c1-c1c(cc(OC)c(OC)c1OC)C[C@](C)(O)[C@@H](C)C2	-10	-16
Cc1c(C#N)c2nc3ccccc3n2c(=O)c1=CNc1ccc(F)cc1	15	9
Cc1ccccc1-n1c(C)nnc1SCc1ccc(C(=O)Nc2ccc(C(C)C)cc2)cc1	-4	8
c1ccc2c(-c3nc4ccccn4c3Nc3ccc4c(c3)OCO4)c[nH]c2c1	3	1
CCOC(=O)c1sc(NC(=O)c2cc(C)no2)nc1C	6	9
COC(=O)c1c(NC(=O)c2ccccc2Br)sc2c1CCC2	-1	-3

# More entries.
canonical_smiles	NPYLR7 ag	NPYLR7 ag max-min
CCCc1[nH]n(-c2ccc(Cl)c(Cl)c2)c(=O)c1C1=C(N2CCC(C)CC2)C(=O)N(c2ccccc2F)C1=O	2	13
NC(=O)NN=Cc1cc(Br)cc(Br)c1O	1	-1
CC(C)C(C)NC(=O)c1cc(-c2ccccc2F)nc2cc(C(C)(C)C)nn12 (centres undefined)	7	13
CCc1cccc(CC)c1-n1c(CNC(=O)c2cccs2)nnc1SCC(=O)Nc1nnc(C)s1	-12	-4
CC(C)n1c(SCc2ccccc2OC(F)F)nc2cc(S(=O)(=O)N3CCCC3)ccc21	9	8
CN(Cc1csc(-c2ccccc2)n1)Cc1nc(CC2CC2)no1	14	6
CCOc1ccc(N2CCN(C(=O)C3CC3)C(C)C2=O)cc1 (centres undefined)	-2	5
CNC(=S)N1CCn2cccc2C1c1cc(OC)c(OC)c(OC)c1 (centres undefined)	-1	-3
COc1cccc(CN(Cc2ccc3c(c2)OCO3)Cc2nc(C(=O)NC3CC3)co2)c1OC	1	-10
COc1ccc(-n2c(=O)[nH]c3c(C(N)=O)nc(-c4ccccc4)nc32)cc1OC	13	9
O=C(COc1ccc(Cl)cc1)N1CCCC(OCc2ccc(C(F)(F)F)cc2)C1 (centres undefined)	-7	0
CN(CCc1noc(C2CC2)n1)C(=O)c1cccc(CC2CCNCC2)c1	1	-1
COc1ccc(CN(C)Cc2ncc[nH]2)c2cccnc12	17	14
O=S(=O)(NNc1c(F)c(F)c(F)c(F)c1F)c1cc(Cl)ccc1Cl	3	0
Cc1ccc(OCc2nnc(SCC(=O)O)n2N)cc1	6	5
CC(C(N)=O)N1CCC(c2nc3cc(Cl)ccc3s2)CC1 (centres undefined)	-6	-11
CCN(CC)c1ccc2cc(-c3nnc(Nc4ccccc4)s3)c(=O)oc2c1	-4	-9
COc1cccc(Cc2nsc(N3CCCC(C(=O)O)C3)n2)c1 (centres undefined)	-4	-12
COc1cccc(CN2CCCC3(CCN(Cc4cccc(C(C)=O)c4)C3)C2)c1OC (centres undefined)	3	-1
COc1ccc(C(C)=O)cc1CS(=O)(=O)CC(=O)Nc1ccc2c(c1)CCC2	4	3

# (cont.)
canonical_smiles	NPYLR7 ag	NPYLR7 ag max-min
O=C1CN(Cc2cccn2-c2ccccn2)CC(OCc2ccncc2)CN1C1CCCCC1 (centres undefined)	3	-8
O=C(CSCc1ccccc1Cl)NC1CCNCC1	15	5
Cc1ccc(C(=O)O)cc1-c1cccc(C(C)N(C)C)c1 (centres undefined)	6	3
Cc1ccc(-c2cn(S(=O)(=O)c3cccc([N+](=O)[O-])c3)nc2N)cc1	0	-1
N#Cc1cccc(C(=O)N2CCN(C(c3ccc(F)cc3)c3ccc(F)cc3)CC2)c1	20	25
Cc1cccnc1CN1CCN(Cc2ccc(-c3ccccc3)nc2)CC1	-1	-2
Cc1ccoc1C(=O)NCC(C)Oc1cccnc1 (centres undefined)	0	0
Cc1cccc(NC(=O)CSc2nc(=O)n(CCN3CCOCC3)c3c2CCC3)c1C	-3	-5
Cc1ccccc1CN1C(=O)C2(SC(C)(C)CN2C(=O)c2ccccc2F)c2ccccc21 (centres undefined)	-3	0
COC(=O)c1ccc(-c2noc(CN3CCCCC3c3nccs3)n2)cc1 (centres undefined)	14	7
CCc1ccc(C(=O)Cn2nc(C)cc(-c3nc(C)cs3)c2=O)cc1	-1	4
O=C(c1ccc(Cl)cc1)N1C[C@H](O)[C@@H](N2CCN(c3ccccn3)CC2)C1	4	1
Cn1c(O)c(N=NC(=O)c2ccccc2O)c2cc(Br)ccc21	-9	-12
CN(C)CC/C=C1\c2ccccc2COc2ccccc21	-8&-5&1	-12&-13&-4
O=C(c1cc2ccccc2s1)N1C[C@H](O)[C@@H](N2CCOCC2)C1	9	8
CCOC(=O)c1sc(=NC(=O)c2ccc(S(=O)(=O)N(C)Cc3ccccc3)cc2)n(C)c1C	12	20
CC(C)CCc1nc(N2CCCN(S(=O)(=O)c3ccc(Br)cc3)CC2)c2cnn(-c3cccc(Cl)c3)c2n1	20	17
CC1C(=O)N(c2ccc(Cl)c(Cl)c2)CCN1C(=O)Nc1ccccc1 (centres undefined)	-1	8
COc1ccc(C(=O)Nc2c(N)nc(SCc3ccccc3C)[nH]c2=O)cc1OC	-3	-1
CCc1cc(C(=O)O)c(NC(=O)c2ccccc2C)s1	6	1

# Later entries:
canonical_smiles	NPYLR7 ag	NPYLR7 ag max-min
CCOC(=O)C1(CCCc2ccccc2)CCN(C(=O)c2cc(CC(C)C)nc(C)n2)CC1	14	6
CSc1cccc(NC(=O)COC(=O)c2ccc(N(C)C)c([N+](=O)[O-])c2)c1	33	25
Cc1cc(=O)[nH]c(-n2nc(C)c(CCC(=O)NCc3ccccc3)c2C)n1	15	7
O=C(c1ccc2cc[nH]c2c1)N1CCCC(CCc2ccccc2C(F)(F)F)C1 (centres undefined)	7	3
C=c1ccccc1=c1[nH]/c(=C\C(Cl)=C\c2ccccc2)c(=O)o1	-1	-3
Cc1ccc(NC(=O)CCCn2c(=O)oc3ccccc32)c(C)c1	5	3
CC(C(=O)Nc1cc(F)ccc1F)N1CCN(C(C)(C)CO)CC1 (centres undefined)	0	21
O=C1NCCCCC1Sc1nc2scc(-c3ccc(F)cc3)c2c(=O)[nH]1 (centres undefined)	10	9
O=C(NCc1nc2ccccc2o1)c1ccc2oc(CCc3ccccc3)nc2c1	-5	-7
Cc1c(C)c(C(=O)N2CCN(c3ccccc3F)CC2)n(Cc2cccc(C(F)(F)F)c2)c1C	31	27
Cc1ccccc1N1OC2C(=O)N(c3ccccc3)C(=O)C2C1c1ccc(N(C)C)cc1 (centres undefined)	-1	-8
O=C(O)c1cccc(C2OCCO2)c1	0	-1
COc1ccc(OCC2CCCN(C(=O)c3cn(Cc4ccccc4Cl)nn3)C2)cc1 (centres undefined)	13	4
COc1cc(/C=C/c2nc(C(=O)O)ccc2C#N)cc(OC)c1OC(F)F	11	7
Cn1cnc2cc(C(=O)N3CCNCC3C(=O)N3CCCC3)ccc2c1=O (centres undefined)	19	9
CC(=O)Nc1cccc(-c2ncc(C(F)(F)F)cc2Cl)c1	-2	-11
Cc1ccnc(SCc2cc(=O)c(OC(=O)c3ccc(C)c([N+](=O)[O-])c3)co2)n1	-13	-12
COc1ccc(-c2cc(C(=O)N/N=C\c3ccc(Cl)cc3Cl)[nH]n2)cc1	1	-2
CC1(C)C[C@H]2C[C@@H](Oc3ccccn3)[C@H](N3CCN(c4ncccn4)CC3)[C@]2(O)CO1	1	2

# An excerpt, so the mix of outcomes need not match the whole.
